# Calb FLC = C. albicans growth inhibition with fluconazole, primary screen, CaCi-2 strain, Alamar Blue fluorescence. C. albicans CaCi-2 (fluconazole-resistant clinical isolate) + fluconazole, 48 h. growth inhibition, % (test concentration not listed). actives 0.57% (n = 300,000). AID 1979, 2009;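 active = most replicates above 75%; inconclusive = exactly half above 75%; inactive = most below 75%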;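 also: all wells also contain fluconazole at 8 µg/ml as a sub-toxic cotreatment; 0% = median of DMSO wells and 100% = median of geldanamycin control wells; wells of about 8 µL received 7.5 nL stock; the first replicate is given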
# A1 inh = caspase 3/7 activation in MEF A1-2A-BIM cells, primary screen, A1 inhibitor project, cell-based, luminescence, HTS | Caspase-Glo 3/7 luminescence, 3 h; percent of clofoctol response, vehicle zero | caspase activation, % (concentration not given with the values) | actives 0.066% (n = 330,000) | AID 2462, 2010;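 active = over half of replicate activation scores above 10%, or exactly half above 10 with the replicate mean above 10; inconclusive = replicate mean below 10 yet half the replicates above 10; inactive = over half of replicates below 10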;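 also: wells of about 30 µL received 50 nL stock; many hits fall short of the cut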
# T cruzi inh = inhibitors of intracellular T. cruzi growth, primary screen, luminescence, NIH3T3 host cells; T. cruzi beta-gal in NIH3T3, 90 h; inhibition, % (test concentration not listed); actives 1.4% (n = 300,000); AID 1885, 2009;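 active = mean inhibition across valid replicates above about 55%, limit read from the data; inconclusive = mean below that limit but half or more replicates reach it; inactive = mean below it, under half of replicates reach it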;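 also: signal also drops with host cell toxicity which is not excluded here; 0% = plate median of DMSO wells and 100% = zero luminescence signal; higher percent means less beta-gal luminescence so fewer parasites; stock transfer was 50 nL into about 50 µL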
# Beta cell apopt = inhibitors of cytokine-induced beta cell apoptosis, primary screen, luminescence. INS-1E cytokine-induced death, ATP luminescence, 48 h; percent of positive-control rescue, neutral wells zero. protection from apoptosis, % (test concentration not listed). actives 0.8% (n = 300,000). AID 435005, 2010;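 active = all replicates at 75% or more, or half of them and the mean; inconclusive = half reach 75% but not the mean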;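 also: 0% = cytokine-treated negative control wells and 100% = positive control rescue; higher means more ATP so stronger rescue from cytokine killing; wells of about 40 µL received 100 nL stock; the first replicate is given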
# RanGTP-Imp inh = inhibitors of RanGTP-importin-beta interaction, primary screen, biochemical, FRET, CFP-Ran, YFP-importin-beta, homogeneous; Ran GTPase (GTP-bound) - importin-beta complex; cell-free CFP-Ran/YFP-importin-beta FRET ratio; inhibition, % (no concentration beside the values); actives 1.1% (n = 300,000);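 active = most replicates above 15%; inconclusive = exactly half above 15%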;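 also: 0% = DMSO wells and 100% = Ran loaded with GDP instead of GTP; wells of about 40 µL received 100 nL stock; the first replicate is given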
# LANA-H2A inh = blockers of LANA interaction with H2A/H2B – biochemical, FP readout, HTS, primary screen | Protein LANA1 (Human herpesvirus 8 type P (isolate GK18)), Q9QR71 | cell-free LANA-H2A/H2B peptide, fluorescence polarization | inhibition, % (no concentration beside the values) | actives 0.6% (n = 320,000) | AID 2629, 2010; in the data active = inhibition mostly above about 10%, no sharp cut-off; inactive = mostly below about 6.7%;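 also: stock transfer was 7.5 nL into about 10 µL; 0% = median of vehicle wells and 100% = median of positive control wells; one replicate is shown; the record names a cut of 25% in any replicate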
# Beta2AR agonist = beta2AR agonists driving receptor internalization, primary screen, cell-based, FAP fluorogen, flow cytometry | Beta-2 adrenergic receptor (Homo sapiens), P07550 | Am2.2-beta2AR cells; reference of the scale not given here | response, % (test concentration not listed) | actives 0.43% (n = 340,000) | AID 504454, 2011;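 active = response above a set limit, near 3 SD of response in nonfluorescent compounds, cut at about 42% in these data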;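 also: stock transfer was 100 nL into about 11 µL; a reference agonist was the positive control; negative values mostly stem from fluorescent compounds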
# Target sequence (P07550 whole entry, looked up): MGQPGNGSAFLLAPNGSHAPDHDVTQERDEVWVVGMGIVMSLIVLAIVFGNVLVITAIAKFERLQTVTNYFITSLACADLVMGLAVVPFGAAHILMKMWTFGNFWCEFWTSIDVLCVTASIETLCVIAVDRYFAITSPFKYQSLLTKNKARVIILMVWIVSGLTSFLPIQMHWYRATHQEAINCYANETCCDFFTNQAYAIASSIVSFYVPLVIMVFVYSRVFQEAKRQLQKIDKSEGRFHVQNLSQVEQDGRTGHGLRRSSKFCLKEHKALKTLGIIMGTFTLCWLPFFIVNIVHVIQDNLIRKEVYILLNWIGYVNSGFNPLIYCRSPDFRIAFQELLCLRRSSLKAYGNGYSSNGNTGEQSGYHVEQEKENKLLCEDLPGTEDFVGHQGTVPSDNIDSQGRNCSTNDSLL
# UCH37 DUB inh = inhibitors of human UCH37 deubiquitinase, primary screen, biochemical, Ub-AMC cleavage, fluorescence; Ubiquitin carboxyl-terminal hydrolase isozyme L5 (Homo sapiens), Q9Y5K5; purified proteasome/UCH37; inhibition, % (test concentration not listed); actives 0.33% (n = 330,000); AID 588478, 2011;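 active = mean of two replicates above 20%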;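 also: 0% = compound-free wells with enzyme and 100% = wells lacking proteasome; stock transfer was 100 nL into about 20 µL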
# Target sequence (Q9Y5K5 whole entry, looked up): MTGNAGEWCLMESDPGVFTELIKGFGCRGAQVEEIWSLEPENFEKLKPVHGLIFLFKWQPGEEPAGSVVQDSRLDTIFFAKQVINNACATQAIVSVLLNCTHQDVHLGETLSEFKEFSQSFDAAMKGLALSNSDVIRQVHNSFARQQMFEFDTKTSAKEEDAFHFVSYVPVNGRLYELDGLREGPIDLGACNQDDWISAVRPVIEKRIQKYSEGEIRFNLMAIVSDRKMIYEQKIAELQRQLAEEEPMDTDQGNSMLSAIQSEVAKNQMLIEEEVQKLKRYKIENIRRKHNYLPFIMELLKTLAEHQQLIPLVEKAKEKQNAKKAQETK
#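 Test system – human UCH37 enzyme supplied as purified proteasome complex · Incubation – 30 min preincubation with enzyme, 25 min cleavage at room temperature · Detection – AMC fluorescence from Ub-AMC cleavage, excitation 355 nm, emission 460 nm · Benchmarks – no-proteasome wells (full inhibition) and compound-free wells (no inhibition)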
# An asterisk follows results filed as active; ? = inconclusive; · = no result given.
Structure	Calb FLC	A1 inh	T cruzi inh	Beta cell apopt	RanGTP-Imp inh	LANA-H2A inh	Beta2AR agonist	UCH37 DUB inh
CSc1ccccc1NC(=S)NC1CCCCC1	?	-0.7	-13	-6	-1.0	1.3	4	0.6
COc1ccc(Cn2c(-c3ccc(C)cc3)nc3c(c(=O)c4ccccc4n3C)c2=O)cc1	19	-0.9	51	·	-0.5	1.5	-1	7.5
O=C(CN1C(=O)c2ccccc2S1(=O)=O)NCc1ccco1	-8	0.0	7	-6	-2.3	-3.3	-4	1.7
NC(N)=NCCCC(NC(=O)c1ccccc1)C(=O)Nc1ccc2ccccc2c1 (stereo not given)	·	-0.7	·	-3	·	2.8	-10	1.0
CCOc1ccc2oc(C(=O)NCC(C)(C)CN(C)C)c(C)c2c1	17	0.0	3	-1	8.4	11	55*	-26
Cc1ccccc1CNC(=O)c1ccccc1N(C)S(=O)(=O)c1ccccc1	-7	0.5	-8	·	0.6	0.1	13	1.7
Cc1ccc(CC(=O)Nc2ccccc2-c2ccccc2)cc1C	2	-0.2	26	-2	-3.2	-3.0	2	2.1
Cn1cccc1-c1nc2ccc(NC(=O)c3ccc([N+](=O)[O-])cc3)cc2[nH]1	-2	0.1	28	·	-0.3	0.9	3	·
O=C(NCc1ccco1)C(=O)NCC(c1ccco1)N1CCOCC1 (stereo not given)	7	-0.6	-13	-2	-0.4	2.6	2	-0.7
Cc1cc(OCC(=O)NC(C)C)cc(C)c1Cl	3	-1.0	1	4	-0.1	2.7	-2	6.2
CC(C)OCCCNC(=O)CN1C(=O)CSc2ccc(S(=O)(=O)N3CCCCC3)cc21	24	-0.8	-6	-2	2.8	22*	-5	2.7
CC(/C=C/c1ccc2c(c1)OCO2)=N/NC(=O)c1cccnc1	-20	0.4	-14	-5	·	-3.4	-1	·
O=C(Nc1nc2ccc(F)cc2s1)C1CC(=O)N(c2ccc3c(c2)OCCO3)C1 (stereo not given)	·	-1.2	·	-7	·	-13	5	6.0
COc1ccc(N2CC(C(=O)Nc3nnc(SCCC4OCCO4)s3)CC2=O)cc1 (stereo not given)	3	-0.7	-5	2	-2.4	-3.9	4	5.5
CC(C)CCNC(=O)C1CC(c2cccc(F)c2)=NO1 (stereo not given)	0	-0.4	-18	-3	7.0	-0.6	-4	0.7
N/C(=N/OC(=O)c1ccccc1Cl)c1ncc([N+](=O)[O-])s1	5	-1.0	8	55	-2.1	0.6	-25	·
Cc1cc(Br)ccc1SCC(=O)OCC(=O)NC1CCCC1	20	-1.8	-14	-3	-0.8	-1.9	-2	6.3
COc1cccc(C=N[C@@H](CO)[C@@H](O)c2ccc([N+](=O)[O-])cc2)c1O	-8	0.1	17	-6	1.7	2.8	3	3.9
CCOC(=O)[C@H]1[C@H]2COc3ccc(C)cc3[C@@H]2N2C(=O)c3cc(Br)ccc3NC(=O)[C@@]12C	·	-0.1	·	18	·	-2.2	1	1.8
c1ccc(CSc2nnc(Cc3ccccn3)o2)cc1	1	0.5	10	-5	22*	0.1	-1	-0.3
CCC(=O)Nc1ccc(S(=O)(=O)c2ccc(NC(=O)CC)cc2)cc1	-9	1.1	-22	-4	4.0	-2.0	-2	1.4
CCC(=NC)C1=C(O)CC(c2ccccc2)CC1=O (stereo not given)	1	-0.1	-2	·	1.9	-3.7	-3	1.7
O=C1NC[C@@H](c2ccccc2)OC(=O)[C@@H](Cc2ccc(F)cc2)CC/C=C/C[C@@H]1CC(=O)N(CCO)Cc1ccccc1	·	2.0	·	-3	·	0.3	-12	3.5
Cc1ccccc1CSCC(=O)c1c(N)n(C)c(=O)n(C)c1=O	1	-0.8	6	0	-1.9	11	9	6.2
O=C(OCC(=O)N1CCCCCC1)c1ccc(Cl)nc1	·	-0.5	·	-3	·	-2.6	-10	-2.3
COc1ccc(CCNC(=O)CCCCCNC(=O)N2CCn3c2nc2ccccc23)cc1OC	-4	0.8	9	-1	1.8	-1.1	-11	2.3
COc1cc2ccccc2cc1C(=O)Nc1nnc(-c2ccncc2)o1	0	-1.9	-27	-11	2.6	-6.5	-1	-0.1
CCOC(=O)c1ccc(N2CSC3=C(C#N)C(c4ccc(OC)cc4OC)CC(=O)N3C2)cc1 (stereo not given)	-1	0.9	6	1	-7.0	1.9	3	3.9
O=C(NCCc1ccccc1)c1ccccc1C(=O)NCCc1ccccc1	-1	1.7	-9	-3	-1.9	-5.6	2	6.2
CS(=O)(=O)N(CC(=O)Nc1cccnc1)c1ccc2c(c1)OCCO2	-6	-0.3	3	-4	-2.1	0.4	-2	-3.1
COc1ccccc1NC(=O)/C=C1\NC(=O)CS1	-12	0.4	1	-3	5.4	-1.2	-6	6.1
CC(=O)c1cc(C#N)c(NCc2cc(-c3ccccc3)no2)nc1C	7	-0.1	-4	1	2.8	0.7	-9	-2.1
CC(C)(C)c1ccc(C(=O)NCC(=O)OCC(=O)NC(=O)NC2CCCC2)cc1	·	0.4	·	-4	·	-1.0	0	3.2
COc1cccc(/C(O)=C2\C(=O)C(=O)N(c3ccccn3)C2c2ccccc2OC)c1 (stereo not given)	·	1.2	·	-4	·	2.0	-1	8.9
Cc1cc(/C=N/NC(=O)c2ccccn2)c(C)n1-c1cccc([N+](=O)[O-])c1	19	2.1	9	-1	-2.4	-2.2	-4	·
Cc1ccc(C(=O)NCC(=O)N2CCCCCC2)cc1	-3	0.3	-3	1	-4.6	3.6	-1	3.9
Cc1ccc2c(c1)N(CC(=O)NCCCN1CC(C)CC(C)C1)C(=O)c1cccnc1O2 (stereo not given)	-1	0.2	-8	0	-1.6	0.4	-2	6.0
CCCCN(C(=O)c1ccc(N(C)S(=O)(=O)c2ccc(C)cc2)cc1)c1c(N)n(CCC)c(=O)[nH]c1=O	4	1.0	-1	·	2.1	-4.6	1	5.2
C/C(CC(=O)Nc1cc(Cl)ccc1C)=N\NC(N)=O	9	0.0	-8	-3	1.9	1.8	-3	·
N#Cc1ccsc1NC(=O)C1=COCCO1	·	-1.1	·	-4	·	-5.7	-3	5.7
O=C(CSc1cccc[n+]1[O-])CSc1cccc[n+]1[O-]	73*	-0.7	67*	·	-3.0	-1.6	-3	0.6
CCC(=O)N1CCN(c2ccc(Cl)cc2NC(=O)Cc2ccccc2)CC1	·	-0.3	·	-3	·	4.0	-4	2.2
Cc1ccc(C(=O)Nc2cccc(C(=O)N3CCOCC3)c2)cc1Cl	0	-0.8	-11	·	-3.1	2.3	7	-2.1
CCOC(=O)C1=C(N)OC2=C(C(=O)CC(C)(C)C2)C1c1ccoc1 (stereo not given)	6	-0.4	-5	-1	-1.9	3.6	3	1.9
CCOc1ccc(-c2c(C)sc3nc[nH]c(=O)c23)cc1	15	1.0	-4	-6	3.5	3.6	11	3.1
Cc1ccnc2c(N3C(=O)C4C5C=CC(C5)C4C3=O)cccc12 (stereo not given)	51	1.0	-3	·	0.5	-0.7	-7	7.1
O=C(Nc1ccnn1C1CCN(Cc2c(F)cccc2Cl)CC1)C1CCCC1	2	1.2	10	-2	3.8	4.5	-2	-0.9
COc1ccc(/C(C)=N\n2cnnc2)cc1	19	-0.1	-5	4	2.4	2.9	1	·
O=C1CCCC2=C1C(c1cccs1)CC(=O)N2c1ccc(F)cc1 (stereo not given)	-1	0.2	-10	-2	5.2	-6.9	-1	2.5
COc1ccc(C(=O)NC(C)Cc2cnccn2)cc1OC1CCN(C(C)C)CC1 (stereo not given)	10	0.5	-6	2	-0.5	0.9	3	-4.0
O=C1CSC(c2cccc(F)c2)N1c1ccccc1 (stereo not given)	10	0.8	-15	·	1.2	-9.7	4	-0.1
Cc1ccc(OCCOc2ccc(S(=O)(=O)N3CCCC3)cc2C(N)=O)cc1	·	1.8	·	1	·	-1.0	2	0.4
C=C(C)C(=O)Nc1cccc(C(C)=O)c1	-5	0.4	0	-5	-2.7	-5.9	-8	·
CCN(CC)S(=O)(=O)c1ccc(S(=O)(=O)N2CCC(N3CCCCC3)CC2)cc1	-24	0.4	1	-3	0.8	1.7	1	·
Cc1cc(C)c(S(=O)(=O)Nc2ccncc2)cc1C	4	0.8	11	-2	-2.9	3.7	-12	1.7
COc1c(C)cc(C(=O)C2CCCN(Cc3cccc4nccnc34)C2)cc1C (stereo not given)	1	0.8	33	0	-3.2	-2.7	4	-0.3
O=C(COc1cccnc1[N+](=O)[O-])NCc1ccco1	5	-0.6	3	-1	-0.8	1.5	0	5.7
CC(C)C(O)C1CCN(Cc2nc(Cc3ccccc3Cl)no2)CC1 (stereo not given)	12	-0.9	4	-2	1.1	4.0	-20	1.1
O=C(NC1CCCC1)C(c1c[nH]c2ccccc12)N(C(=O)Cn1nnc(-c2ccc(Cl)cc2)n1)c1ccccc1 (stereo not given)	22	-0.8	52	-26	-0.9	-1.9	10	2.6
COCCCN(Cc1ccco1)C(=O)Cn1ncc2c([nH]c3ccccc32)c1=O	-8	-0.4	6	2	-0.3	-2.3	13	3.5

# Continued:
Structure	Calb FLC	A1 inh	T cruzi inh	Beta cell apopt	RanGTP-Imp inh	LANA-H2A inh	Beta2AR agonist	UCH37 DUB inh
O=S(=O)(c1cc(Cl)ccc1Br)N1CCCCC1	-17	2.0	-6	-4	?	2.1	-9	5.0
O=C(c1cc2cc([N+](=O)[O-])ccc2s1)N1CCOCC1	-9	0.1	-7	0	0.7	-2.0	-8	1.6
COCc1nnc(NC(=O)C2CC(=O)N(c3ccc(C)c(Cl)c3)C2)s1 (stereo not given)	-5	-0.5	-1	·	3.5	1.2	-1	3.8
CC1CCCCN1Cc1cnc(Cl)s1 (stereo not given)	-2	-0.1	·	-10	-1.8	-4.1	4	1.0
O=C(COC(=O)c1ccc2c(c1)S(=O)(=O)N=C1CCCCCN12)NCCc1ccc(F)cc1	-2	-0.2	-14	-3	-1.6	1.6	4	2.2
O=C(CCN=C1NS(=O)(=O)c2ccccc21)OCC(=O)c1ccccc1	16	0.2	-2	-5	5.1	-3.2	4	-2.7
CN(Cc1ccccc1)Cc1nc2c(c(=O)n(C)c(=O)n2C)n1Cc1ccccc1Cl	10	-0.3	1	4	-2.1	-0.5	0	4.3
[O-]/C(=C(\C(=S)NCc1ccccc1)[n+]1ccccc1)c1ccc(Cl)s1	-30	-0.6	-9	-6	·	-5.2	0	3.9
Cc1cc2nc(C)c(Cl)c(=O)n2[nH]1	20	-0.8	-13	5	-4.4	3.3	-7	-2.2
